# LANA-H2A inh = blocks KSHV LANA binding to histone H2A/H2B | AID 2629 | inhibition, % (test concentration not listed) | cell-free LANA-H2A/H2B peptide, fluorescence polarization | hit rate 0.6% among 320,000; in the data active = inhibition mostly above about 10%, no sharp cut-off; inactive = mostly below about 6.7%;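 note: stock transfer was 7.5 nL into about 10 µL; 0% = median of vehicle wells and 100% = median of positive control wells; one replicate is shown; the record names a cut of 25% in any replicate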
# RanGTP-Impb inh = inhibitors of RanGTP-importin-beta interaction, primary screen, biochemical, FRET, CFP-Ran, YFP-importin-beta, homogeneous; inhibition, % (test concentration not listed); hit rate 1.1% among 300,000; cell-free CFP-Ran/YFP-importin-beta FRET ratio;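 active = most replicates above 15%; inconclusive = exactly half above 15%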;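 note: 0% = DMSO wells and 100% = Ran loaded with GDP instead of GTP; wells of about 40 µL received 100 nL stock; the first replicate is given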
# Beta2AR agonist = activates human beta-2 adrenergic receptor causing internalization; P07550; Am2.2-beta2AR cells, FAP receptor internalization, flow cytometry; reference of the scale not given here; response, % (test concentration not listed); hit rate 0.43% among 340,000; AID 504454;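 active = response above a set limit, near 3 SD of response in nonfluorescent compounds, cut at about 42% in these data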;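 note: stock transfer was 100 nL into about 11 µL; a reference agonist was the positive control; negative values mostly stem from fluorescent compounds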
# Target sequence (P07550 whole entry, looked up): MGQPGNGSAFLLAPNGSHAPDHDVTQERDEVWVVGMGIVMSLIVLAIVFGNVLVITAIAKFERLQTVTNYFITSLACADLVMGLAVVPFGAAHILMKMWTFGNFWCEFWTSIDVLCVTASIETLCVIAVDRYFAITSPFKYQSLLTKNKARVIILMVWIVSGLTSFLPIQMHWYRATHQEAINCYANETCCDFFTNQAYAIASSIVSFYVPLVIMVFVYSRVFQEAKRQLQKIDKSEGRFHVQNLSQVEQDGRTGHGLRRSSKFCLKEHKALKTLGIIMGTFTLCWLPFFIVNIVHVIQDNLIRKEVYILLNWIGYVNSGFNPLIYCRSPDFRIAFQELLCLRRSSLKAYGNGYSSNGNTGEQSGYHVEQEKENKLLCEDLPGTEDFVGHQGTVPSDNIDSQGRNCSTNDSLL
# ALR inh = blocks human ALR sulfhydryl oxidase activity | P55789 | inhibition, % (no concentration beside the values) | AID 485317 | purified ALR, DTT oxidation, H2O2 HRP-luminol luminescence | hit rate 3.8% among 290,000;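 active = mean and each replicate at 75% or more; inconclusive = only one of the two met; inactive = neither met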;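 note: stock transfer was 7.5 nL into about 7.5 µL; 0% = neutral wells and 100% = wells with inactivated enzyme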
# Target sequence (P55789 whole entry, looked up): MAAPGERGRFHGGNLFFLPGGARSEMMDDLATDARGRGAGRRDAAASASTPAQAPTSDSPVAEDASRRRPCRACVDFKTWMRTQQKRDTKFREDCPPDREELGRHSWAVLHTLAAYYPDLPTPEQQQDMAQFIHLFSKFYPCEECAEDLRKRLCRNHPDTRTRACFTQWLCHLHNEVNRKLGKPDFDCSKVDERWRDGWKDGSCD
# Vif TR-FRET = inhibitors of Vif binding to APOBEC3G peptide, primary screen, biochemical, TR-FRET, GST-Vif 1-94, biotin-A3G peptide, dose response retest (AID 1117319) | hit rate 0.57% among 260,000 | inhibition, %, or IC50 in µM where a hit was titrated | TR-FRET GST-Vif / biotin-A3G peptide binding; higher % means a stronger effect; test concentration not given here; strong numbers were not always called active;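 active = above the screen mean plus three standard deviations and confirmed in dose response; inconclusive = results disagree or hit not tested in dose response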;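 note: Vif residues 1-94 fused to GST binding biotinylated APOBEC3G peptide 110-148; 0% = full assay without inhibitor and 100% = GST in place of GST-Vif; retest series ran down from 100 µM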
# Calb FLC = affects C. albicans growth with fluconazole; growth inhibition, % (test concentration not listed); hit rate 0.57% among 300,000; C. albicans CaCi-2 (fluconazole-resistant clinical isolate) + fluconazole, Alamar Blue growth, 48 h; AID 1979;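 active = most replicates above 75%; inconclusive = exactly half above 75%; inactive = most below 75%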;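 note: all wells also contain fluconazole at 8 µg/ml as a sub-toxic cotreatment; 0% = median of DMSO wells and 100% = median of geldanamycin control wells; wells of about 8 µL received 7.5 nL stock; the first replicate is given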
# HNF4A DNA FP = change in binding of human HNF4 alpha to DNA; P41235; hit rate 0.3% among 360,000; HNF4a-FITC DNA binding, fluorescence polarization, 1 h; activity change, % at 10 µM; AID 1224865; in the data active = activity change above about 30%, passing the limit was not always enough;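 note: controls were the assay level and a saturating level of protein; the project sought stronger binding though the title names inhibitors; some compounds called inactive have numbers as strong as hits; positive values seem to mean higher polarization but the record does not say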
# * = called active by the depositor; u = inconclusive; x = no result given; & = joins results of further samples.
SMILES,LANA-H2A inh,RanGTP-Impb inh,Beta2AR agonist,ALR inh,Vif TR-FRET,Calb FLC,HNF4A DNA FP
OC(CNCc1ccccc1)(c1ccc(F)cc1)c1ccc(F)cc1,5.0,-1.7,2,-1,-5%,-6,-1.6
O=C(O)CP(=O)(c1ccccc1)c1ccccc1,3.5,x,19,x,6%,0,1.3
Cc1ccc(C(C)C)c(OCC(=O)Nn2c(=O)[nH]c3ccccc3c2=O)c1,0.8,2.0,-10,x,x,13,-0.9
O=C(O)c1c[nH]ccc1=O,-4.6,-0.2,-5,-3,-5%,-5,-5.9
FC(F)(F)c1cccc(CN2CCN(c3ncccn3)CC2)c1,0.1,5.2,-3,6,x,-1,-0.7
Cc1cc(C(=O)CCC(=O)Nc2ncccc2C)c(C)s1,-1.4,-2.3,8,-2,9%,2,0.3
Cc1cc(/C=N/NC(=O)COc2cccc3cccnc23)c(C)n1-c1ccc(O)cc1,0.3,5.8,-2,-7,x,7,4.8
Cc1ccccc1NC(=O)c1cccc(C(F)(F)F)c1,0.6,-1.4,-7,-17,-2%,-13,-0.1
COc1ccc(CN2C(=O)C(C)Nc3ncnc(N4CCN(c5ccccc5)CC4)c32)cc1 (centres undefined),5.5,x,-5,1,x,x,2.7&1.5
O=C1CC(N2C(=O)/C(=C/C=C/c3ccccc3)SC2=S)C(=O)N1c1ccccc1 (centres undefined),-1.8,-5.3,7,-7,33%,5,19
CCNC(=O)Nc1cc2nc(C)n(Cc3ccc(Br)cc3)c2nc1C,-3.0,-1.6,0,-6,u,-1,-2.9
CN(CC(=O)Nc1c(Cl)cccc1Cl)C(=O)Cn1[nH]c(=O)c2ccccc2c1=O,-1.0,x,-1,1,-2%,x,7.1
COc1ccc2c(=O)c(-c3cnn(-c4ccccc4)c3)c(C)oc2c1,22*,-5.7,-2,-19,20%,-18,0.9
Cc1cccc(OC2CCN(Cc3c(C(=O)N4CCCC4)nc4ccccn34)CC2)c1,2.1,-1.7,0,-2,x,2,5.6
O=C(COc1ccc(Br)cc1)N1CCN(c2ccc([N+](=O)[O-])c(N3CCCCC3)c2)CC1,-1.2,1.6,-3,-5,12%,u,-0.3
O=c1[nH]cccc1-c1nc2cc(Cl)ccc2n1Cc1ccccc1,-4.2,1.3,-2,-4,-11%,5,-0.1
Cc1c(C)c2c(OCC(=O)NCc3ccco3)cc3c(c2oc1=O)CCC(C)(C)O3,0.1,-2.4,-6,x,x,-4,2.9
O=S1(=O)c2ccccc2N=NN1Cc1cc(Cl)cc(Cl)c1,-6.6,-6.5,x,99*,23%,2,x
CC1CCc2nc(NCCO)nc(C(F)(F)F)c2C1 (centres undefined),-0.8,u,-7,-6,0%,17,-3.5
Cc1ccc(S(=O)(=O)NCC(=O)N(CC(=O)NC(C)(C)C)Cc2ccc3c(c2)OCO3)cc1,0.1,-1.6,-1,3,x,-7,0.7
CCOC(=O)C1CCN(c2nc(C)nc3c2oc2ccccc23)CC1,3.9,3.1,6,-10,-5%,-2,1.9
Cc1noc(NS(=O)(=O)c2ccc(NC(=O)c3oc4ccc(F)cc4c3C)cc2)c1C,x,0.7,-5,x,x,-5,-3.2
CC(C)c1ccc(NC(=O)NC2CC3CCC(C2)N3Cc2cccs2)cc1 (centres undefined),-6.4,2.9,1,-1,-6%,1,0.2
CCC1CCCCN1CCCNC(=O)CSc1nc2nc(C)c(Cc3ccccc3)c(C)n2n1 (centres undefined),-7.8,1.1,-4,-9,2%,-4,3.7
O=C(CCc1c[nH]c2ccccc12)NCCc1ccc2c(c1)OCCO2,0.9,-1.2,-3,2,x,-9,0.2
Cn1nc(C(=O)NCCc2ccc(S(N)(=O)=O)cc2)c2c1-c1ccccc1S(=O)(=O)C2,2.6,-0.8,2,-3,1%,-3,-1.1
COc1ccc2ccccc2c1CNC(C)c1ccccc1 (centres undefined),12,-1.1,5,-45,x,-32,1.8
Cc1ccc(NCC(=O)N/N=C/c2cccn2C)cc1,0.9,0.2,-3,x,x,-2,-0.4
COc1ccc(N(C(=O)C(C)C)S(=O)(=O)c2cccs2)cc1,x,-0.7,-4,x,3%,u,4.0
CN1CCN(c2ccc(NC(=O)COc3ccccc3Cl)cc2)CC1,2.5,2.9,-7,4,11%,0,3.0
COc1ccc(S(=O)(=O)Nc2cccc3c2O[C@@H](CN(C)CC2CC2)[C@@H](C)CN([C@@H](C)CO)C3=O)cc1,1.0,x,-4,0,x,x,-2.2
O=C1CC(N2CCN(Cc3ccccc3)CC2)C(=O)N1 (centres undefined),4.8,-2.2,4,11,12%,-14,3.3
CC(Sc1nnc(-c2ccncc2)n1C)C(=O)Nc1nccs1 (centres undefined),7.0,6.3,1,-1,x,-36,8.9
COCC(=O)Nc1nc(-c2ccccc2)c(C)s1,0.3,5.4,-5,8,2%,-1,4.9
O=C1c2ccccc2C(Nc2ccccc2)N1c1ccc(Cl)cn1 (centres undefined),x,x,-6,x,5%,x,-2.2
CN(C(=O)C1CCOC1)c1nnc(-c2ccncc2)s1 (centres undefined),-4.5,u,1,0,-4%,-1,-0.6
CCNC(=O)N1C(CC(=O)OCC)C(=O)NC2CCCCC21 (centres undefined),1.8,2.0,0,-5,8%,5,-0.9
Cc1cc(CNC(=O)C(C)n2cc([N+](=O)[O-])cn2)c2ccccc2n1 (centres undefined),2.5,1.4,-13,x,8%,-4,-0.5
CCn1c(/C=C/Nc2ccccc2)[n+](CC)c2ccc(C(=O)OCC(F)(F)F)cc21,x,2.0,-13,x,x,-21,-0.9
COc1cccc(/C=N/Nc2ncnc3c2ncn3Cc2ccccc2)c1O,0.6,6.0,3,-6,1%,-4,1.1
Nc1ccc(NC(=O)c2cccc(C(=O)Nc3ccc(N)cc3Cl)c2)c(Cl)c1,0.4,-0.4,11,99*,0%,-3,4.8
CC(=O)Oc1cccc(N2C(=O)C3C(C2=O)C2C=CC3C23CC3)c1 (centres undefined),-4.1,3.2,-4,7,0%,-1,-5.3
O=C(NCc1ccco1)c1ccc(Br)c(S(=O)(=O)N2CCCCC2)c1,0.8,4.9,7,0,0%,5,1.6
Cc1ccc(-n2c(CNc3ccc(C)c(Cl)c3)n[nH]c2=S)cc1,-3.6,0.2,8,59,x,8,-1.1
NC(=O)c1cc2cc(Cl)ccc2oc1=O,1.9,-2.1,-4,-2,u,-7,5.7
CCc1cccc2c(C(=O)CSc3nncn3-c3ccccc3OC)c[nH]c12,7.1,0.3,12,-2,x,15,-1.8
O=C(COc1ccc(Cl)cc1)Nc1ccc2c(c1)C(=O)NC2=O,3.2,-1.6,11,-2,x,-6,0.5
Cc1[nH]n(-c2ccccc2)c(=O)c1/C=C1/C=c2ccccc2=N1,x,-1.7,6,x,-3%,18,-4.9
COc1ccc(NC(=O)Cc2c(Cl)cccc2Cl)cn1,-1.3,0.9,3,-19,3%,-6,2.5
COc1ccc(C2NC(=O)NC(C)=C2C(=O)OCc2ccc3c(c2)OCO3)cc1OC (centres undefined),0.5,u,5,x,1%,2,3.5
# (continued)
SMILES,LANA-H2A inh,RanGTP-Impb inh,Beta2AR agonist,ALR inh,Vif TR-FRET,Calb FLC,HNF4A DNA FP
Cn1c(C(=O)N/N=C/c2ccccc2)cc2ccccc21,-0.7,-1.1,6,-8,x,1,-0.9
O=C(/C=C/c1cccc([N+](=O)[O-])c1)NCc1ccco1,0.1,5.5,-7,19,x,7,-0.7
C=CCSC1=C(C#N)C(c2ccccc2OC)CC(=O)N1 (centres undefined),6.8,2.3,1,-5,4%,37,4.0
O=C(CN1CCN(c2ccccn2)CC1)NC1CCCCC1,-2.6,-1.2,-6,-7,27%,1,0.9
CCOc1ccc(S(=O)(=O)NC2CC2)cc1C(N)=O,1.5,0.7,0,1,-2%,-11,-3.1
Cc1cc(Nc2ccc(C(=O)O)cc2)n2nc(C)nc2n1,0.5,-3.0,5,-3,-4%,4,2.3
COc1cccc(-n2ccnc2SCC(=O)NCc2ccccc2)c1,2.4,-0.5,-9,-3,1%,-1,-1.6
CCN(CC)CC(=O)N(CC(=O)Nc1c(C)cc(C)cc1C)C1CCCCC1,-0.8,0.0,13,-6,14%,-39,5.0
CCN(CC(=O)Nc1c(F)cccc1F)C(=O)CNC(=O)c1sc2ccccc2c1Cl,0.2,x,-1,1,-82%,x,0.9
O=C(CCC(=O)c1ccc(Br)cc1)Nc1cccnc1,0.8,u,0,-9,-9%,-5,2.1
COCCN(C(=O)CCC(=O)Nc1nccs1)C(C(=O)NC(C)(C)C)c1ccc(Cl)cc1 (centres undefined),-3.8,u,0,-9,1%,-6,1.1
Cc1cc(OCCCn2ccnc2)cc(C(C)C)c1,-1.3,-1.0,-2,x,-1%,u,-2.3
CC(C)c1cc(C(=O)N/N=C/c2cccnc2)cs1,-4.4,-4.3,6,-3,-7%,-5,-1.7
COc1ccc(C2=Nn3c(nnc3C(F)(F)F)SC2)cc1,-3.2,-2.3,-15,3,-6%,27,-0.6
Cc1ccc(C(=O)N/C(=C\c2sccc2C)C(=O)NCc2ccncc2)cc1,x,2.3,4,x,x,21,2.8
O=C(Cc1cccs1)OCC(=O)c1ccco1,9.9,4.4,3,13,27%,3,-3.2
CC1(C)CC(C)(O)N(Cc2ccccc2)C(=S)N1 (centres undefined),1.4,1.0,-2,-2,-4%,-5,1.5
OC(COc1ccc(Cl)cc1)CN1C2=NCCCN2c2ccccc21 (centres undefined),-1.3,-4.6,0,x,-1%,-4,5.3
O=C(O)c1cccc(NC(=O)c2ccccc2NC(=O)c2ccco2)c1,1.9,2.4,-4,-1,x,-1,2.6
CCOC(=O)Cc1cnc(NC(=O)CSc2nc(N)cc(=O)[nH]2)s1,2.7,5.3,-3,-10,x,u,2.4
COC(=O)C1=C(C)N(Cc2ccccc2)C(=NCCCCO)N[C@H]1c1cccc(C(F)(F)F)c1,-2.3,x,15,-2,x,x,4.5
CCc1ccc(/C=N/NC(=O)Cc2ccc(OC)c(OC)c2)s1,3.7,x,-4,-20,x,-2,-1.4
Cc1ccc2[nH]c(SCC(=O)N3CCOCC3)nc2c1C,2.2,-2.1,6,-4,5%,3,-3.0
COc1ccc(N(Cc2cc3ccc(C)cc3[nH]c2=O)C(=O)C2CCCO2)cc1 (centres undefined),-0.5,-3.3,-8,-4,-5%,4,0.2
CC1CCCCC1NS(=O)(=O)c1ccc2c(c1)CCC(=O)N2 (centres undefined),3.7,x,1,-17,-1%,x,-0.1
COc1ccc(C(=O)C2CCCN(C(=O)c3cccnc3OC)C2)c(C)c1 (centres undefined),-0.6,-0.3,0,0,-4%,2,-1.6
O=[N+]([O-])c1ccc(N2CCN(S(=O)(=O)c3ccccc3)CC2)cc1NCCN1CCOCC1,5.4,-2.2,20,-6,6%,2,-3.6
C[C@H](CO)N1C[C@H](C)[C@@H](CN(C)S(=O)(=O)c2cn(C)cn2)Oc2c(NC(=O)Nc3ccc(C(F)(F)F)cc3)cccc2C1=O,-1.9,x,-2,-8,x,x,0.4
COc1cccc(/C=C/C(=O)OCC(=O)NC2CCCCCCC2)c1,-0.5,x,-3,8,-7%,x,1.9
CCCCCN(C(=O)CCC(=O)OCC(=O)c1ccc(C(C)(C)C)cc1)c1c(N)n(CCCC)c(=O)[nH]c1=O,1.7,0.8,12,-14,-4%,-3,0.9
CCNc1ccccc1CP(=O)(c1ccccc1)c1ccccc1O (centres undefined),6.0,-7.7,x,-8,x,11,x
O=C(CSc1nnc(Cc2ccccc2)o1)Nc1ccc2c(c1)OCO2,0.9,7.4,-3,23,-4%,-2,0.9

# High-throughput results from PubChem.
